p53 HeLa = nuclear p53 accumulation, HPV+ cells – imaging, p53-positive nuclei imaging, 24 h, 48 h (AID 1508601). p53-positive nuclei imaging, 48 h; active compounds read high; some inactives read as strong as hits. p53-positive nuclei, normalised, % at 11 µM unless noted. hit rate 1% among 5,700;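 active means mean of two plates above 50% at 24 h or at 48 h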;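 further: HPV-positive HeLa cells with a fluorescent p53 stability reporter; 0% = vehicle and 100% = proteasome inhibitor control; doses worked out from stocks diluted about 900-fold with the highest of each compound shown; many of its hits are not listed in these tables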
p53 HeLa cells 24 h = also measured in p53 HeLa; calls as there; nuclei count, normalised, %; measured here: cell number at 24 h;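 100% = vehicle wells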
p53 HeLa p53 24 h = further read-out of p53 HeLa, marked with its call; p53-positive nuclei, normalised, %; measured here: p53 positive nuclei at 24 h;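 0% = vehicle and 100% = positive control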
p53 HeLa cells 48 h = second read-out of p53 HeLa, no call of its own (marks repeat the call); nuclei count, normalised, %; measured here: cell number at 48 h;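 100% = vehicle wells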
An asterisk follows results filed as active; [ ] = another dose, or the depositor's remark. Some of the compounds tested, so the mix of outcomes need not match the whole.

Screens by letter: A = p53 HeLa; B = p53 HeLa cells 24 h; C = p53 HeLa p53 24 h; D = p53 HeLa cells 48 h
1: O=C(NCc1cccc(O)c1)Nc1nc(-c2ccncc2)cs1
  A = -0.2[3.7 µM]; B = 100; C = -0.4; D = 93
2: Nc1cccc2c1C(=O)N(C1CCC(=O)NC1=O)C2=O (configuration not stated)
  A = 0.0; B = 110; C = 0.1; D = 109
3: COc1ccc(-c2cc(=O)c3c(O)cc(O)cc3o2)cc1O
  A = -0.2[3.7 µM]; B = 96; C = -0.3; D = 91
4: NCCc1cnc[nH]1
  A = 0.1; B = 101; C = -0.1; D = 104
5: Cc1cn[nH]c1
  A = 0.0; B = 106; C = -0.1; D = 105
6: COc1ccc(-c2ccccc2)cc1NS(=O)(=O)c1cc(Cl)cc(Cl)c1O
  A = -0.1; B = 109; C = -0.1; D = 110
7: O=C(O)CCn1nnc2ccccc21
  A = -0.2; B = 105; C = -0.2; D = 109
8: NC(=O)c1noc(C(CCCC2CCCCC2)CC(=O)NO)n1 (configuration not stated)
  A = 0.1; B = 112; C = 0.1; D = 116
9: COc1nc(C)cnc1NS(=O)(=O)c1cccnc1-c1ccc(-c2nnco2)cc1
  A = -0.7[3.7 µM]; B = 102; C = -0.3; D = 101
10: O=S(=O)(c1cccc2c(I)cccc12)N1CCCNCC1
  A = 0.1; B = 95; C = 0.0; D = 103
11: COC1C(OC(N)=O)C(O)C(Oc2ccc3c(O)c(NC(=O)c4ccc(O)c(CC=C(C)C)c4)c(=O)oc3c2C)OC1(C)C (configuration not stated)
  A = -0.2[3.7 µM]; B = 84; C = -0.4; D = 96
12: C[C@]12C=CC(=O)N[C@@H]1CC[C@@H]1[C@H]2CC[C@]2(C)C(C(=O)Nc3cc(C(F)(F)F)ccc3C(F)(F)F)CC[C@@H]12 (some centres not stated)
  A = -0.5[3.7 µM]; B = 107; C = -0.4; D = 107
13: COc1ccc(C(=O)O)cc1
  A = -0.1; B = 110; C = -0.2; D = 103
14: O=C(NCc1ccccc1)c1csc(Nc2ccncn2)n1
  A = -0.5[3.7 µM]; B = 119; C = -0.2; D = 123
15: O=c1ccc2ccccc2o1
  A = 0.0[3.7 µM]; B = 96; C = -0.1; D = 95

Profiles from above. Order of values: p53 HeLa, p53 HeLa cells 24 h, p53 HeLa p53 24 h, p53 HeLa cells 48 h
`Cc1cn[nH]c1` is listed with 0.0, 106, -0.1, 105
`COc1ccc(C(=O)O)cc1` is listed with -0.1, 110, -0.2, 103
`Nc1cccc2c1C(=O)N(C1CCC(=O)NC1=O)C2=O` (configuration not stated) is listed with 0.0, 110, 0.1, 109

Next structures follow.
Screens by letter: A = p53 HeLa; B = p53 HeLa cells 24 h; C = p53 HeLa p53 24 h; D = p53 HeLa cells 48 h
16: Cc1ccc(-c2c(-c3nn(C)c4ncnc(N5CCC(N6CCCCC6)C5)c34)cnn2C)cc1 (configuration not stated)
  A = -0.1; B = 114; C = -0.1; D = 119
17: O=c1cc(N2CCOCC2)oc2c1ccc1ccccc12
  A = -0.1; B = 103; C = -0.2; D = 111
18: Nc1[nH]c(=O)ncc1F
  A = 9.5[3.7 µM]; B = 104; C = -0.2; D = 108
19: NC(=O)c1cnccn1
  A = 0.2[3.7 µM]; B = 76; C = 0.4; D = 93
20: COc1cc(C2Oc3ccc(C4Oc5cc(O)cc(O)c5C(=O)C4O)cc3OC2CO)ccc1O (configuration not stated)
  A = -0.3[3.7 µM]; B = 109; C = -0.5; D = 105
21: O=S(=O)(O)CCS
  A = 0.0[3.7 µM]; B = 113; C = -0.2; D = 113
22: COc1cc(C(=O)NC2CCCNC2)cc(OC)c1OC (configuration not stated)
  A = -0.1[3.7 µM]; B = 112; C = -0.3; D = 106
23: O=C(NNc1ccccc1)c1ccncc1
  A = 0.1; B = 105; C = 0.0; D = 106
24: CCc1ccc(S(=O)(=O)c2nnn3c2nc(NCc2cccs2)c2sccc23)cc1
  A = -0.1; B = 97; C = -0.1; D = 98
25: CC(C)n1cnc2c(NCc3ccccc3)nc(NCCCO)nc21
  A = 0.1; B = 89; C = 0.1; D = 103
26: O=C(O)c1cc(I)ccc1NC(=O)C(Cc1ccccc1)NCc1ccccc1 (configuration not stated)
  A = -0.1[3.7 µM]; B = 113; C = -0.3; D = 110
27: Nc1nccc2c1ncn2C1C=C(CO)C(O)C1O (configuration not stated)
  A = 0.2; B = 111; C = 0.0; D = 104
28: CCN(C(=O)c1c(O)c2c(Cl)cccc2n(C)c1=O)c1ccccc1
  A = -0.2[3.7 µM]; B = 106; C = -0.3; D = 105
29: Cc1c(O)c(=O)ccn1C
  A = 0.0; B = 105; C = 0.0; D = 108
30: O=c1c(O)c(-c2ccc(O)cc2O)oc2cc(O)cc(O)c12
  A = 0.0[3.7 µM]; B = 103; C = -0.3; D = 98

Screen by screen, quoted from above.
p53 HeLa p53 24 h, nos. 18 to 23 → -0.2, 0.4, -0.5, -0.2, -0.3, 0.0
p53 HeLa, nos. 18 to 23 → 9.5[3.7 µM], 0.2[3.7 µM], -0.3[3.7 µM], 0.0[3.7 µM], -0.1[3.7 µM], 0.1
p53 HeLa cells 48 h, nos. 18 to 23 → 108, 93, 105, 113, 106, 106

Further structures follow.
Screens by letter: A = p53 HeLa; B = p53 HeLa cells 24 h; C = p53 HeLa p53 24 h; D = p53 HeLa cells 48 h
31: CN(C)CCCn1cc(C2=C(c3c[nH]c4ccccc34)C(=O)NC2=O)c2ccccc21
  A = 0.0[3.7 µM]; B = 108; C = -0.3; D = 105
32: CC(=O)OCC[N+](C)(C)C
  A = -0.3[3.7 µM]; B = 116; C = -0.6; D = 101
33: NC(N)=NCCCC(N)C(=O)NC(CCCN=C(N)N)C(=O)N1CCCC1C(=O)N1CC(O)CC1C(=O)NCC(=O)NC(Cc1cccs1)C(=O)NC(CO)C(=O)N1Cc2ccccc2CC1C(=O)N1C(C(=O)NC(CCCN=C(N)N)C(=O)O)C[C@H]2CCCC[C@H]21 (some centres not stated)
  A = -0.1; B = 103; C = -0.1; D = 105
34: COc1ccccc1N1CCN(CCN(C(=O)C2CCCCC2)c2ccccn2)CC1
  A = 0.0[3.7 µM]; B = 106; C = -0.3; D = 108
35: O=C1NC(=O)C(=Cc2ccc3nccnc3c2)S1
  A = -0.1; B = 111; C = -0.1; D = 122
36: O=c1[nH]c(=O)n(C2CC(O)C(CO)O2)cc1F (configuration not stated)
  A = -0.5[3.7 µM]; B = 62; C = -0.3; D = 50
37: COc1cc2ncnc(Nc3ccc(Cl)cc3F)c2cc1OC
  A = -0.3[3.7 µM]; B = 115; C = -0.5; D = 115
38: COc1ccccc1N1CCN(CCN2C(=O)CC3(CCCC3)CC2=O)CC1
  A = -0.2; B = 111; C = -0.2; D = 112
39: CC(C)Oc1ccc(C(=O)NC(CNC(=O)CN(C)C)Cc2ccc(-c3cn4cccc(C(C)O)c4n3)cc2)cc1Cl (configuration not stated)
  A = 1.9; B = 38; C = -0.1; D = 25
40: CC1OC(O)C(O)C(O)C1O (configuration not stated)
  A = -0.1[3.7 µM]; B = 119; C = -0.5; D = 110
41: CCOC(=O)Nc1cc(-c2ccc(C)c(NS(C)(=O)=O)c2)nn2c(C)nnc12
  A = 0.8[3.7 µM]; B = 122; C = 1.4; D = 122
42: COC(=O)CCc1ccc(OCC(O)CNC(C)C)cc1 (configuration not stated)
  A = 0.1; B = 112; C = 0.0; D = 107
43: Cc1ccc2c(c1)C(=O)[C@]1(O)CCN(c3ccccc3)C1=N2
  A = 0.0; B = 90; C = 0.0; D = 95
44: Cc1nc2n(c(=O)c1CCN1CCC(c3noc4cc(F)ccc34)CC1)CCCC2
  A = -0.1[3.7 µM]; B = 102; C = -0.2; D = 95
45: O=c1cc[nH]c(=S)[nH]1
  A = -0.3[3.7 µM]; B = 113; C = -0.5; D = 109

The last 2 compounds of the part before come first, to join the parts:
Screens by letter: A = p53 HeLa; B = p53 HeLa cells 24 h; C = p53 HeLa p53 24 h; D = p53 HeLa cells 48 h
44: Cc1nc2n(c(=O)c1CCN1CCC(c3noc4cc(F)ccc34)CC1)CCCC2
  A = -0.1[3.7 µM]; B = 102; C = -0.2; D = 95
45: O=c1cc[nH]c(=S)[nH]1
  A = -0.3[3.7 µM]; B = 113; C = -0.5; D = 109
46: C#C[C@@]1(O)CC[C@H]2[C@@H]3CCc4cc(OC)ccc4[C@@H]3CC[C@@]21C
  A = 0.0[3.7 µM]; B = 105; C = -0.3; D = 109
47: COCCOC(=O)C1=C(C)NC(C)=C(C(=O)OC(C)C)C1c1cccc([N+](=O)[O-])c1 (configuration not stated)
  A = -0.1[3.7 µM]; B = 111; C = -0.2; D = 102
48: O=C1c2ccccc2C(=O)C1c1ccccc1
  A = 7.3[3.7 µM]; B = 44; C = 0.9; D = 33
49: CCn1cc(C(=O)O)c(=O)c2cc(F)c(N3CCN(C)CC3)cc21
  A = -0.1[3.7 µM]; B = 108; C = -0.3; D = 104
50: COc1cc(Oc2ccnc3cc(OC)c(OC)cc23)ccc1NC(=O)NC(C)c1cncs1 (configuration not stated)
  A = 1.9; B = 73; C = 0.0; D = 56
51: OC(c1cc(C(F)(F)F)nc2c(C(F)(F)F)cccc12)[C@H]1CCCCN1 (some centres not stated)
  A = 1.0; B = 86; C = 1.4; D = 100
52: N=C(N)c1cc2ccc(OC(=O)c3cccs3)cc2s1
  A = -0.2; B = 111; C = 0.1; D = 106
53: S=c1nc[nH]c2nc[nH]c12
  A = -0.1; B = 100; C = 0.1; D = 75
54: CNCc1cc(-c2ccccc2F)n(S(=O)(=O)c2cccnc2)c1
  A = 0.0[3.7 µM]; B = 114; C = -0.3; D = 108
55: COc1ccc(Cc2nn3c(C(CCCc4ccccc4)C(C)O)nc(C)c3c(=O)[nH]2)cc1OC (configuration not stated)
  A = -0.3; B = 90; C = -0.2; D = 98
56: CCC(CC)CC1(C(=O)Nc2ccccc2SC(=O)C(C)C)CCCCC1
  A = -0.1[3.7 µM]; B = 109; C = -0.3; D = 98

Looked up above:
compound 47 | p53 HeLa p53 24 h = -0.2
compound 51 | p53 HeLa cells 24 h = 86
